IDH1 R132H inh: inhibitors of human mutant IDH1 R132H; IDH1-R132H enzyme, NADPH consumption, diaphorase/resazurin fluorescence; 390,000 tested, 0.093% active; AID 602179; Potency, µM (series often up to 76.6 µM), inactives show at the top dose activity change, negative = inhibition, actives largely listed as inhibitors; further: potency means the concentration at half of the fitted maximal effect; on the % scale 0 is the no-effect control and ±100 the full control effect; nearly all actives have a fitted effect of over 65% in size
Target sequence (O75874 whole entry R132H, stated change not applied): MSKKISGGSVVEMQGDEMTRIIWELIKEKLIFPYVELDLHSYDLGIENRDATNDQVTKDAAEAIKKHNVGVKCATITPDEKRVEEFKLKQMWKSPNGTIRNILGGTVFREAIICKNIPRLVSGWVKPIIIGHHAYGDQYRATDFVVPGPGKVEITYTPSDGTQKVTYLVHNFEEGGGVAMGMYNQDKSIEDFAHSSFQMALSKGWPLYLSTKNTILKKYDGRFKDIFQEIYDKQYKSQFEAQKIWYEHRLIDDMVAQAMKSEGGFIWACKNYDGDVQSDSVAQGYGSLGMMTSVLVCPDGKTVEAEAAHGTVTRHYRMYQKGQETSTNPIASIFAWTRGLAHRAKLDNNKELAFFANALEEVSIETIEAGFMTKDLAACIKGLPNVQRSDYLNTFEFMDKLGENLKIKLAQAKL
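IDH1-R132H (0.5 ug/mL dispensed) in pH 7.5 Tris buffer was preincubated 30 min with compound, then given a substrate mix of 0.016 mM NADPH and 2 mM alpha-KG for 80 min at room temperature; remaining NADPH was read by diaphorase/resazurin fluorescence.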
TrxR1 substrate: is turned over as a substrate by rat TrxR1; purified TrxR1 substrate turnover, NADPH consumption readout; Potency, µM (doses to about 114 µM), without a hit: top-dose activity change, negative = substrate turnover; 390,000 tested, 0.01% active; further: potency means the concentration at half of the fitted maximal effect; on the % scale 0 is the no-effect control and ±100 the full control effect; nearly all actives have a fitted effect of over 50% in size
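Rat TrxR1, dispensed at 90 nM, was prereduced with 400 uM NADPH (final) for 5 min at ~22 deg C, then incubated with compound 15 min before 400 uM selenite. A first-read NADPH fluorescence drop versus no-compound background flagged substrates.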
TRHR agonist: activates the human TRH receptor; TRHR cells, calcium flux fluo-8, FDSS agonist mode; 360,000 tested, 0.18% active; P34981; AID 493084; activation, % at 2 µM; in the data active means activation above about 30%; further: 0% is about no effect
Target sequence (P34981 whole entry, looked up): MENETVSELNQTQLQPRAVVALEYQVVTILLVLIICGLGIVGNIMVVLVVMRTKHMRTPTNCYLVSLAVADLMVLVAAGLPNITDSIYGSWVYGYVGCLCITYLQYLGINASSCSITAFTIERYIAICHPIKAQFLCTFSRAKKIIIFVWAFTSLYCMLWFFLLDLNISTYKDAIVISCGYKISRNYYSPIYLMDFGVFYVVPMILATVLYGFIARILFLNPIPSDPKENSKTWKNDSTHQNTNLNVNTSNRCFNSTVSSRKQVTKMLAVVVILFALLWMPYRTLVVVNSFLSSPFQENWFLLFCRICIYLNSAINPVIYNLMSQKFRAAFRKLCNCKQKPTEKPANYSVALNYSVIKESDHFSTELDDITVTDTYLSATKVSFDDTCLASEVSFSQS
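Read-out: compound-evoked intracellular calcium rise in TRHR cells, fluo-8 dye, kinetic FDSS fluorescence at 1 s/cycle following a 10-cycle baseline. Cells cultured overnight before dye loading (30 min–1.5 h, RT).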
D2 antag: D2 dopamine receptor (human) antagonism | P14416 | HEK293 TREx D2 cells, calcium flux, dopamine EC80 | inhibition, % at 10 µM | 340,000 tested, 2% active | AID 485344; in the data active means inhibition above about 30%; further: 0% is about no effect
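Calcium flux kinetic readout in an inducible HEK293 TREx D2 line plated overnight at 30 C. After 180 s compound exposure, an EC80 dopamine challenge follows with another 180 s kinetic read to detect antagonism.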
rTrxR1 inhibitor: rat TrxR1 inhibition. recombinant rTrxR1, NADPH fluorescence consumption, selenite substrate. Potency, µM (titrated, usually from 114 µM), for inactives: top-dose activity change, negative = inhibition, most hits filed as inhibitors. 390,000 tested, 1% active. AID 588453; further: potency means the concentration at half of the fitted maximal effect; on the % scale 0 is the no-effect control and ±100 the full control effect; nearly all actives have a fitted effect of over 65% in size
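Rat TrxR1 (90 nM in the dispensed reagent) was pre-reduced with 400 uM NADPH for 5 min at room temperature, then incubated with compound for 15 min. After 400 uM selenite was added, NADPH fluorescence (Ex 340/Em 450 nm) was followed for 8 min.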
D2 ag: activates the human D2 dopamine receptor; P14416; HEK293 T-REx D2 cells, calcium flux agonist mode; activation, % at 2 µM; 340,000 tested, 0.53% active; AID 485358;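 active means activation over 3 SD above normal in the single-dose calcium agonist read, cut at about 30% in these data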; further: 0% is about no effect
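Tetracycline-induced HEK293 Trex cells with D2 receptor force-coupled to calcium signaling, plated overnight at 30 C and loaded with no-wash calcium dye. Calcium flux read kinetically for 180 s after compound addition; responses flag agonists.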
TRHR PAM: allosteric enhancers of human TRH receptor; P34981; enhancement, % at 2 µM; 360,000 tested, 0.66% active; AID 493056; TRHR cells, fluo-8 calcium fluorescence, EC20 TRH enhancement; in the data active means enhancement above about 30%; further: 0% is about no effect
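Enhancer read-out: after compound pinning and an initial kinetic agonist-mode read, an EC20 of TRH (10 nM final) was injected and fluo-8 calcium signal (Ex 480/Em 530) followed at 1 s/cycle for 100 cycles in TRHR-expressing cells.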
Pin1 inhibitor: blocks the human prolyl isomerase Pin1; 390,000 tested, 0.009% active; Pin1 FP peptide displacement, HiFluor488, 10 min; AID 504891; Potency, µM (titrated, usually from 115 µM), without a hit: top-dose activity, negative = inhibition, hits mostly inhibitors; active means well fitted inhibition curve with a large enough effect in the polarisation, with a control signal flat, not every such curve was filed as active; inconclusive means small, poorly fitted or top-dose-only effect, or effect the other way, or a change in a side signal; inactive means no such curve, though single readings can be large or run the other way; the % refers to the polarisation; further: potency means the concentration at half of the fitted maximal effect; on the % scale 0 is the no-effect control and ±100 the full control effect
Target sequence (Q13526 whole entry, looked up): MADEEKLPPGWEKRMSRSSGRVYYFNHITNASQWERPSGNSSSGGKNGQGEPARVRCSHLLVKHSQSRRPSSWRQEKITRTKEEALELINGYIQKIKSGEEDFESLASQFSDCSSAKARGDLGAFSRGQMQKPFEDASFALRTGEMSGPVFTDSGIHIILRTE
An asterisk follows results filed as active; ? = inconclusive; · = no result given; [ ] = another dose, or the depositor's remark. Unless noted, the call rests on the fitted dose curve; in most records, active means well fitted inhibition curve with a large enough effect; inconclusive means small, poorly fitted or top-dose-only effect; inactive means no such curve, though single readings can be large or run the other way. A portion of the library, so the mix of outcomes need not match the whole.

Order of values: IDH1 R132H inh, TrxR1 substrate, TRHR agonist, D2 antag, rTrxR1 inhibitor, D2 ag, TRHR PAM, Pin1 inhibitor
> COc1ccccc1NC(=O)C(C)OC(=O)/C(=C/c1ccccc1)NC(C)=O (stereo unspecified)
    8%, 8%, 1.3, -16, 7%, 0.5, 0, 0%
> CC(C(=O)O)N1c2cccc3cccc(c23)S1(=O)=O (stereo unspecified)
    -1%, 42%[activator], 1.1, -10, 33%, -0.9, 0, 1%
> CCOC(=O)c1ccc(-c2ccc(/C=C(\C#N)C(=O)NCc3cccs3)o2)cc1
    5%, -4%, 0.4, -23, -14%, 2.0, -6, ?
> CCN1CCN(CCCNC(=O)CCC(=O)N2CCOc3ccccc32)CC1
    -4%, 0%[57.1 µM], 0.3, 12, 8%[57.1 µM], 0.0, 0, 2%
> CCOc1ccc(/C=C/c2nc(C#N)c(N3CCN(c4ccccc4)CC3)o2)cc1
    -11%, 27%, 0.8, ·, 30%, 0.6, 0, 6%
> COc1ccc(/C=C/C2=Nc3ccccc3NC(C)(C)C2)cc1OC
    0%, -1%, 0.1, 0, 3%, 0.2, 5, 9%
> CCC(Cn1nnc2ccccc2c1=O)NC(=O)Nc1cc(Cl)ccc1OC (stereo unspecified)
    18%, 6%, -1.6, ·, 35%, 0.7, -23, -14%
> CC(C)CC1C(C#N)=C(N)SC(N)=C1C#N
    4%, 6%, -0.7, 8, ?, 0.8, 4, ?
> CC(=O)c1ccccc1OCC(O)CN1CCN(c2ccccn2)CC1 (stereo unspecified)
    -4%, -1%, -0.5, 15, -3%, 0.1, 7, -2%
> CC(=O)Cc1nsc(NC(=O)c2ccc(-c3ccc(Cl)c(C(F)(F)F)c3)o2)n1
    -1%, -2%, -0.1, 5, -23%, 1.1, 6, -1%
> CC(=O)Nc1ccc(S(=O)(=O)Nc2nc3ccccc3nc2Sc2nncn2C)cc1
    11%, 7%[57.1 µM], -0.6, 2, -5%[57.1 µM], -1.5, 4, ?
> O=[N+]([O-])c1cc(-c2n[nH]c(-c3ccccc3)n2)cc([N+](=O)[O-])c1
    3%, 2%[2.29 µM], -1.0, -9, 10%[2.29 µM], 0.3, 0, 5%
> Cc1cc(S(=O)(=O)Nc2cccc(C(=O)O)c2)c(C)c(S(=O)(=O)c2ccccc2)c1
    -27%, -4%, 0.0, ·, 4%, -1.0, -2, -15%
> N#Cc1ccc(/C=N/NC(=O)c2ccccc2F)cc1
    -6%, 4%, -0.4, 6, 0%, 0.7, -3, 1%
> N#CC(c1ccncc1)(c1ncc(C(F)(F)F)cc1Cl)N1CCOCC1 (stereo unspecified)
    12%, -3%[57.1 µM], -0.9, -3, 3%[57.1 µM], -0.3, 8, -11%
> NC(CO)C(O)c1ccc([N+](=O)[O-])cc1 (stereo unspecified)
    -15%, 335%[activator], 0.2, -13, 107%[activator], 1.2, 9, 1%
> COc1ccccc1C(=O)Nc1ccccc1N1CCCCC1
    -4%, 10%, -0.4, ·, 33%[activator], ·, -4, -2%
> CCCCNC(=O)c1cc2nc(-c3ccccc3)cc(C(F)(F)F)n2n1
    2%, 18%, 0.7, 11, 28%, 1.7, 6, -11%
> O=C1Cc2ccccc2C(=O)N1Cc1cccc(Cl)c1
    1%, -44%, -0.2, -7, -38%, 0.2, 9, 2%
> COc1cccc(NC(=O)C(C)N2C(=O)c3ccccc3S2(=O)=O)c1 (stereo unspecified)
    3%, -4%, -0.4, -3, -1%, 0.3, 2, -2%
> Cc1cc(OCc2nc(-c3ccc(NC(=O)c4cccnc4)cc3)no2)ccc1Cl
    0%, 1%, ·, ·, 3%, ·, ·, 7%
> CC(=O)Cc1nsc(NC(=O)c2ccccc2Cl)n1
    18%, 8%[57.1 µM], -0.2, 8, ?, 0.8, -9, -2%
> Cc1ccccc1NC(=O)/C(C#N)=C/c1ccc(-c2ccc(Cl)c(C(=O)O)c2)o1
    -4%, -14%, 2.4, 19, -12%, 0.1, -12, 30%[activator]
> O=C(Cn1cnc2sc3c(c2c1=O)CCCC3)NCC(=O)Nc1c(F)cc(F)cc1Br
    1%, -2%, 0.0, 19, 11%, 0.5, 2, -1%
> O=C(CCC(=O)N1CCOc2ccccc21)Nc1ccccc1Br
    11%, -8%[57.1 µM], -0.2, ·, 13%[57.1 µM], ·, -1, -2%
> CC(NS(=O)(=O)c1ccc(Cl)cc1)C(=O)OCC(=O)c1ccc[nH]1 (stereo unspecified)
    -9%, -1%, -0.4, 4, 2%, -0.2, -12, -7%
> CCOC(=O)c1ccc(-c2ccc(/C=C(\C#N)C(=O)Nc3ccc(C)cc3OC)o2)cc1
    14%, 5%, 0.4, ·, 7%, 1.0, -6, 4%
> OC(COc1ccc(Cl)cc1)CN1CCN(c2ccccn2)CC1 (stereo unspecified)
    2%, 3%[57.1 µM], ·, ·, 5%[57.1 µM], ·, ·, -6%
> O=C(CSCc1ccccc1Br)N/N=C/c1ccc(OCC(=O)N2CCCCC2)cc1
    -2%, -2%, 0.3, 0, 3%, 0.9, 1, 1%
> O=S(=O)(Cc1cccc(C(F)(F)F)c1)c1ncn[nH]1
    0%, 1%, 1.1, -1, 19%, -0.3, 1, 2%

Single records, from the list above. Order of values: IDH1 R132H inh, TrxR1 substrate, TRHR agonist, D2 antag, rTrxR1 inhibitor, D2 ag, TRHR PAM, Pin1 inhibitor
`COc1ccccc1NC(=O)C(C)OC(=O)/C(=C/c1ccccc1)NC(C)=O` (stereo unspecified) as listed: 8%, 8%, 1.3, -16, 7%, 0.5, 0, 0%
`Cc1cc(S(=O)(=O)Nc2cccc(C(=O)O)c2)c(C)c(S(=O)(=O)c2ccccc2)c1` as listed: -27%, -4%, 0.0, ·, 4%, -1.0, -2, -15%

Other compounds
Order of values: IDH1 R132H inh, TrxR1 substrate, TRHR agonist, D2 antag, rTrxR1 inhibitor, D2 ag, TRHR PAM, Pin1 inhibitor
> C/C(=N\Nc1ccc(Cl)cc1)c1c(O)cc(C)oc1=O
    -4%, 5%[57.1 µM], 0.3, 0, -2%[57.1 µM], -0.9, 1, -1%
> CCN1/C(=C/C(=S)Nc2ccccc2)Sc2ccccc21
    3%, -13%[57.1 µM], -0.3, -14, 5%[57.1 µM], -0.9, 4, 2%
> CC(=O)C1=C(O)C(=O)N(CCC(=O)O)C1c1ccc(Cl)cc1Cl (stereo unspecified)
    3%, 0%, 0.0, -11, -4%, 0.5, 10, 4%
> CCOC(=O)c1cc(C#N)c(N2CCCCC2)nc1-c1ccccc1
    3%, 113%[activator], ·, ·, 92%[activator], ·, ·, 7%
> COc1ccccc1NC(=O)C(C)Sc1nc2ccccc2c(=O)n1CC1CCCO1 (stereo unspecified)
    -2%, -15%, -0.3, 0, -8%, 0.1, 1, 2%
> CCCc1ccc(OCC(O)CN2CCN(c3ccccn3)CC2)cc1 (stereo unspecified)
    4%, -5%, -0.3, 74*, 12%, 78*, 20, -6%
> COc1cc(/C=C/C(=O)OCC(=O)N2CCN(S(=O)(=O)c3ccc(C)cc3C)CC2)ccc1O
    4%, -1%, -0.5, -4, 1%, -0.5, -8, 16%
> O=C(Cn1cnc(S(=O)(=O)N2CCCCC2)c1)NCc1ccco1
    -2%, -1%, -0.6, 10, 13%, 0.4, -25, -17%
> O=C(c1cc2nc(-c3cccs3)cc(C(F)(F)Cl)n2n1)N1CCCc2ccccc21
    4%, -8%, 1.0, 19, 12%, 0.5, -7, -1%
> COC(=O)/C(NC(C)=O)=C(\C)c1ccc(Cl)cc1
    7%, 5%, 0.1, ·, 9%, -0.5, 2, -7%
> CC(=O)N/C(=C\c1ccccc1)C(=O)OC(C)C(=O)NCc1ccccc1 (stereo unspecified)
    4%, -6%, -0.1, -9, -21%, -0.8, -2, 0%
> CC(C)c1ccc2nc3sc(C(=O)N4CCc5ccccc5C4)c(N)c3cc2c1
    -2%, 3%[57.1 µM], 8.3, 11, 23%[57.1 µM], 6.7, -2, ?
> CC(=O)NS(=O)(=O)c1cccnc1Nc1cccc(Cl)c1C
    4%, 9%[57.1 µM], 0.3, -22, 7%[57.1 µM], 1.0, 9, 6%
> CC1CC(NC(=O)c2cc3c(=O)n4ccccc4nc3n2C)CC(C)(C)C1 (stereo unspecified)
    7%, 263%[activator], 1.4, 13, 139%[activator], -0.7, -3, -8%
> CCC1CN(C(=O)Nc2ccc(C(=O)O)cc2)c2cc(Cl)ccc2O1 (stereo unspecified)
    14%, 6%, -1.4, ·, -15%, 2.0, 7, -1%
> COc1cc(OC)cc(C(=O)N[C@H](C(=O)OCC(=O)c2ccc3c(c2)NC(=O)CO3)C(C)C)c1
    -1%, 12%, -0.9, -20, 8%, -0.6, -3, 28%
> COc1cc(C(=O)NCCc2c[nH]c3ccccc23)ccc1OCc1c(C)noc1C
    9%, -10%[57.1 µM], -0.3, -22, ?, -1.5, -7, 12%
> C=CCSc1n[nH]c(-c2cccs2)n1
    10%, 3%[57.1 µM], -0.1, 9, 10%[57.1 µM], 0.2, -11, -4%
> CN(C)/C=C(\C#N)C(=O)N/N=C(\CC(=O)C(F)(F)F)c1ccco1
    13%, 1%[57.1 µM], 0.5, 3, 13%[57.1 µM], 0.9, -3, -3%
> Fc1cccc(Cc2noc(CN3CCSCC3)n2)c1
    -4%, 4%, 0.3, -10, 10%, 0.4, 5, -2%
> O=C(Cn1nc(-c2ccccc2)nc1-c1ccccc1)OC1CCCCC1
    -9%, 5%, -0.7, -16, 22%, -0.3, -1, -1%
> CC(C)C[C@H](NC(=O)c1[nH]cnc1C(=O)N[C@@H](C)C(=O)OCc1ccccc1)C(=O)OC(C)(C)C
    11%, -13%, 0.8, -7, 0%, 1.1, -11, 1%
> CCC(Cn1nnc2ccccc2c1=O)NC(=O)Nc1ccccc1Cl (stereo unspecified)
    23%, 31%[activator], -2.4, ·, 41%[activator], -1.1, -21, -4%
> Nc1ccc(C(=O)OC2CCOC2=O)cc1[N+](=O)[O-] (stereo unspecified)
    -3%, -8%, -0.3, -7, -8%, 0.5, 22, -3%
> CC(=O)Nc1ccc(S(=O)(=O)Nc2nc3ccccc3nc2Nc2cccc(S(N)(=O)=O)c2)cc1
    -3%, 9%, -0.1, 10, -6%, 0.2, -2, -4%
